Source: PubChem
Vaccinia inh: Vaccinia orthopox stage-specific inhibition; 0.01% of 89,000 active; Vaccinia-infected cells, mCherry/Venus stage reporter fluorescence; stronger effect = lower value; some inactives read as strong as hits; activity change (mCherry), % (test concentration not listed);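 active means mCherry past -33% and 40 or more points under the early reporter, replicates agreeing; inconclusive means past -33% without that gap or agreement; tested in A549 cells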;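 further: scaled between vehicle wells and reference inhibitor wells; 23 nL library stock went into each well; one replicate is shown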
Vaccinia inh Venus: second read-out of Vaccinia inh, no call of its own (marks repeat the call); activity change (Venus), %; measured here: Venus reporter, other viral stage;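 negative = less Venus signal; first of two replicates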
* marks the source's active call; other numbers are inactive results; ? = inconclusive; / = no result given; & = joins results of further samples. The list is partial. The share of hits here may be higher or lower than overall.

Compound | Vaccinia inh | Vaccinia inh Venus
COCC(=O)N1C[C@@H](C)[C@H](OC)CN(C)C(=O)c2cc(NC(=O)c3ccc(F)cc3)ccc2OC[C@H]1C | -2 | -4
C[C@@H]1CN([C@@H](C)CO)C(=O)c2cc(NS(=O)(=O)c3ccc(Cl)cc3)ccc2O[C@@H]1CN(C)C(=O)Nc1ccccc1 | 19 | 3
COc1ccc(NC(=O)N(C)C[C@H]2OCCCC[C@H](C)Oc3ccc(NS(=O)(=O)c4ccccc4)cc3C(=O)N([C@H](C)CO)C[C@@H]2C)cc1 | 8 | 1
C[C@@H]1CCCCO[C@@H](CN(C)Cc2ccc3c(c2)OCO3)[C@@H](C)CN([C@@H](C)CO)C(=O)c2cc(NS(=O)(=O)c3ccccc3)ccc2O1 | ? | /
COC(=O)[C@H]1[C@H](CO)[C@H]2Cn3c(ccc(C4=CCCCC4)c3=O)[C@@H]1N2C(=O)CC1CC1 | 16 | 13
COc1ccc(CN(C)C[C@H]2Oc3ccc(NC(=O)Cc4cn(C)c5ccccc45)cc3C(=O)N([C@@H](C)CO)C[C@H]2C)cc1 | -28 | -17
Cc1ccc(S(=O)(=O)N(C)C[C@@H]2OCCCC[C@H](C)Oc3ccc(NC(=O)Nc4ccc(F)cc4)cc3C(=O)N([C@@H](C)CO)C[C@H]2C)cc1 | 7 | 9
C/C=C/c1cnc2c(c1)C(=O)N([C@H](C)CO)C[C@H](C)[C@H](CN(C)C(=O)c1cccnc1)O2 | 2 | -7
C[C@@H]1CN([C@@H](C)CO)S(=O)(=O)c2ccc(C#CC3CCCCC3)cc2O[C@@H]1CN(C)C(=O)Cc1ccncc1 | ? | /
C[C@H]1CN([C@@H](C)CO)S(=O)(=O)c2ccc(C#CC3(O)CCCC3)cc2O[C@@H]1CN(C)C(=O)Cc1cccnc1 | 38&18 | 21&6

Some of the entries above, reformatted:
Values run as follows: Vaccinia inh | Vaccinia inh Venus
- C[C@@H]1CCCCO[C@@H](CN(C)Cc2ccc3c(c2)OCO3)[C@@H](C)CN([C@@H](C)CO)C(=O)c2cc(NS(=O)(=O)c3ccccc3)ccc2O1
 : ? | /
- COC(=O)[C@H]1[C@H](CO)[C@H]2Cn3c(ccc(C4=CCCCC4)c3=O)[C@@H]1N2C(=O)CC1CC1
 : 16 | 13

(continued)
Compound | Vaccinia inh | Vaccinia inh Venus
O=C(C[C@H]1C=C[C@@H](NS(=O)(=O)c2cccc(F)c2)[C@H](CO)O1)NCc1ccc2c(c1)OCO2 | -5 | -1
COc1ccc(NC(=O)N2C[C@@H]3N[C@H](C2)C3c2ccc(-c3cncnc3)cc2)cc1 (stereo partly drawn) | 4&-27 | 0&-21
C[C@@H]1CN([C@@H](C)CO)C(=O)c2cc(NS(=O)(=O)c3cccs3)ccc2O[C@@H]1CN(C)Cc1ccc2c(c1)OCO2 | 27 | 7
CO[C@H]1CN(C)C(=O)c2ccc(NC(=O)NC(C)C)cc2OC[C@H](C)N(C(=O)C2CCC2)C[C@H]1C | 9 | 17
C[C@H](CO)N1C[C@H](C)[C@H](CN(C)S(=O)(=O)c2ccccc2C#N)OCc2ccccc2-c2ccccc2C1=O | 11 | 4
CCC(=O)N1C[C@H](C)[C@H](OC)CN(C)C(=O)c2cc(NC(=O)c3ccccc3)ccc2OC[C@H]1C | 9 | 7
C[C@@H]1CN([C@H](C)CO)C(=O)CCCn2nncc2CO[C@H]1CN(C)C(=O)Nc1ccc(-c2cccs2)cc1 | -10 | 1
CN1C(=O)c2cc(NC(=O)C3CC3)ccc2OC[C@H]2O[C@@H](CC(=O)NC3CCC3)CC[C@H]21 | 19 | 5
C[C@@H]1CCCCO[C@@H](CN(C)C(=O)NC2CCCCC2)[C@H](C)CN([C@H](C)CO)C(=O)c2cc(NC(=O)Cc3ccccc3)ccc2O1 | ? | /
CC=Cc1ccc2n(c1=O)C[C@H]1[C@H](CO)[C@@H](C(=O)N3CCOCC3)[C@@H]2N1CC1CC1 (mixture of isomers) | 12 | 13
C[C@H](CO)N1C[C@H](C)[C@H](CN(C)Cc2cccc(C(=O)O)c2)Oc2ncc(-c3ccccc3F)cc2C1=O | 13 | 11
C[C@@H]1CN([C@@H](C)CO)C(=O)c2cc(NC(=O)Nc3cccc4ccccc34)ccc2O[C@@H](C)CCCCO[C@H]1CN(C)Cc1ccc(Cl)c(Cl)c1 | 18 | 4
C[C@H](O)C#Cc1ccc([C@H]2[C@H]3CN(S(=O)(=O)c4ccccc4)CCCCN3[C@H]2CO)cc1 | -11 | -12
O=C(Nc1ccc(F)cc1)N1CC(=O)N2[C@H](CO)[C@H](c3ccc(C#CC4CC4)cc3)[C@H]2C1 | -14 | -10
O=C(Cc1cccnc1)N[C@@H]1CC[C@@H](CCn2cc(Cc3ccccc3)nn2)O[C@@H]1CO | 8 | 14
CC(=O)N[C@@H]1CC[C@H](CC(=O)NCC2CCCCC2)O[C@H]1CO | 3 | 3
C[C@H](CO)N1C[C@H](C)[C@H](CN(C)C(=O)Nc2cc(F)ccc2F)Oc2ncc(C#CCN(C)C)cc2C1=O | 7 | 1
CO[C@@H]1CN(C)C(=O)c2ccc(NC(C)=O)cc2OC[C@@H](C)N(S(=O)(=O)c2cn(C)cn2)C[C@@H]1C | -3 | -3
Cc1noc(C)c1NC(=O)Nc1cccc2c1O[C@H](CN(C)S(=O)(=O)c1cn(C)cn1)[C@H](C)CN([C@H](C)CO)C2=O | 9 | 5
C[C@H]1CN([C@@H](C)CO)C(=O)c2cc(NC(=O)Cn3cnnn3)ccc2O[C@@H]1CN(C)Cc1ccc(C(=O)O)cc1 | 7 | 1
COc1ccc(S(=O)(=O)Nc2ccc3c(c2)C(=O)N([C@@H](C)CO)C[C@@H](C)[C@H](CN(C)Cc2ccc(Cl)c(Cl)c2)O3)cc1 | ? | /
O=C(c1cccnc1)N1CCCCN2[C@H](CO)[C@@H](c3ccc(C#Cc4ccccc4)cc3)[C@H]2C1 | ? | /
CN(C)C(=O)c1cccc(-c2ccc([C@@H]3[C@@H](CO)N4C(=O)CN(C(=O)C5CCCCC5)C[C@@H]34)cc2)c1 | -2 | 1
CC(C)NC(=O)N[C@H]1C=C[C@H](CC(=O)N2CCCCC2)O[C@H]1CO | 17 | 10
O=C(N[C@H]1C=C[C@H](CC(=O)N2CCC(Cc3ccccc3)CC2)O[C@@H]1CO)c1cnccn1 | 0 | -7
CO[C@H]1CN(C)C(=O)c2cc(NC(C)=O)ccc2OC[C@@H](C)N(Cc2ccccn2)C[C@H]1C | -10 | -3
C[C@@H]1CN([C@@H](C)CO)C(=O)c2cc(NC(=O)NC3CCCCC3)ccc2O[C@H]1CN(C)Cc1ccncc1 | 21 | 18
COc1ccc(-c2cnc3c(c2)C(=O)N([C@@H](C)CO)C[C@@H](C)[C@H](CN(C)C(=O)C2CCC2)O3)cc1 | -6 | -10
COc1ccccc1-c1ccc([C@@H]2[C@H](CO)N3CCCCN(Cc4ccncc4)C[C@@H]23)cc1 | -23 | -25
COc1ccc(S(=O)(=O)N[C@@H]2CC[C@@H](CCn3cc(C(C)C)nn3)O[C@@H]2CO)cc1 | 6 | 5
COCC#Cc1ccc([C@@H]2[C@H]3CN(S(=O)(=O)c4ccccc4F)CCCCN3[C@H]2CO)cc1 | 3 | 0
CCCC#Cc1ccc([C@@H]2[C@@H](CO)N3CCCCN(C(=O)NC4CCCC4)C[C@@H]23)cc1 | ? | /
COc1ccc(S(=O)(=O)Nc2ccc3c(c2)C(=O)N([C@H](C)CO)C[C@H](C)[C@H](CN(C)S(C)(=O)=O)OCCCC[C@@H](C)O3)cc1 | 15 | 6
C[C@H]1CN([C@@H](C)CO)C(=O)c2ccccc2-c2ccccc2CO[C@@H]1CN(C)C(=O)CCN(C)C | ? | /
C[C@@H]1CCCCO[C@@H](CN(C)C)[C@H](C)CN([C@@H](C)CO)C(=O)c2cc(NS(C)(=O)=O)ccc2O1 | -3 | 1
CC(C)(C)[C@H]1C=C(C(=O)N2CCCC2)O[C@@H](OCc2ccc(CO)cc2)C1 | 1 | -6
O=S(=O)(N[C@@H]1CC[C@@H](CCn2cc(Cc3ccccc3)nn2)O[C@H]1CO)c1ccccc1F | 14 | 12
C/C=C/c1ccccc1[C@@H]1[C@@H](CO)N(c2ncc(CC)s2)[C@H]1C#N | -16 | -9
Cc1noc(C)c1NC(=O)Nc1cccc2c1O[C@H](CN(C)CC1CC1)[C@@H](C)CN([C@H](C)CO)C2=O | 13 | 13
O=C(NCC[C@@H]1CC[C@@H](NC(=O)C2CCCC2)[C@@H](CO)O1)c1cc(Cl)cc(Cl)c1 | 4 | 4
CCCC#Cc1cnc2c(c1)C(=O)N([C@@H](C)CO)C[C@H](C)[C@H](CN(C)C(=O)Nc1ccccc1F)O2 | -2 | -6
COc1ccc2c3c(n(C)c2c1)[C@H](CO)N(Cc1cccc(F)c1)CC31CCN(C(=O)Cc2ccccc2)CC1 | ? | /
CCCNC(=O)N1CC2(CCN(C(=O)CC)CC2)c2c(n(C)c3cc(OC)ccc23)[C@@H]1CO | 22 | 12
C[C@@H]1CN([C@H](C)CO)C(=O)c2cc(-c3ccc(F)cc3)cnc2O[C@@H]1CN(C)Cc1cccnc1 | 0 | 6
CO[C@H]1CN(C)C(=O)c2ccc(NS(=O)(=O)c3ccc(Oc4ccccc4)cc3)cc2OC[C@@H](C)NC[C@@H]1C | -14 | -8
CCN1[C@H](C(=O)N(C)C)[C@@H](CO)[C@@H]2Cn3c(ccc(-c4ccc(F)cc4)c3=O)[C@@H]21 | 11 | 11
CO[C@@H](CN(C)Cc1cc(F)ccc1F)[C@@H](C)CN([C@H](C)CO)S(=O)(=O)c1ccc(F)cc1 | -22 | -20
CO[C@H]1CN(C)C(=O)c2ccc(NC(C)=O)cc2OC[C@H](C)N(C(=O)c2ccc(F)cc2)C[C@H]1C | 7 | 1
O=C(C[C@H]1CC[C@@H](NS(=O)(=O)c2ccccc2)[C@H](CO)O1)NCCN1CCCCC1 | 11 | 10
COc1ccc(S(=O)(=O)N(C)C[C@H]2Oc3ncc(-c4ccncc4)cc3C(=O)N([C@@H](C)CO)C[C@H]2C)cc1 | 9 | 2

Other results follow.
Compound | Vaccinia inh | Vaccinia inh Venus
COc1ccc(NC(=O)N2C[C@@H](O)COC[C@H]3O[C@H](CC(=O)N4CCN(C)CC4)CC[C@@H]32)cc1 | -2 | -11
C[C@H](CO)N1C[C@H](C)[C@@H](CN(C)C)OCCCC[C@H](C)Oc2ccc(NC(=O)Nc3ccc(C(F)(F)F)cc3)cc2C1=O | ? | /
CC(C)CC#Cc1ccc([C@H]2[C@H]3CN(C(=O)Nc4cc(F)ccc4F)CC(=O)N3[C@H]2CO)cc1 | ? | /
C[C@@H]1CN([C@@H](C)CO)C(=O)c2cc(NS(C)(=O)=O)ccc2O[C@H]1CN(C)CC1CC1 | 9 | 8
O=C1CCCc2cnnn2COC[C@@H](c2ccccc2)N1 | 5 | 6
C[C@H]1CN([C@@H](C)CO)C(=O)Cc2cc(NC(=O)Cc3cn(C)c4ccccc34)ccc2O[C@H]1CN(C)S(C)(=O)=O | 11 | 0
COc1cccc(C(=O)Nc2ccc3c(c2)OC[C@@H](C)N(CC2CC2)C[C@H](C)[C@@H](OC)CN(C)C3=O)c1 | -14 | -13
C[C@H](CO)N1C[C@H](C)[C@H](CN(C)C(=O)Cc2ccccn2)Oc2ncc(/C=C/c3ccccc3)cc2C1=O | 0 | 4
COc1ccc(CN(C)C[C@@H]2OCCCC[C@@H](C)Oc3ccc(NC(=O)NC(C)C)cc3C(=O)N([C@H](C)CO)C[C@@H]2C)cc1 | 15 | 9
CCCN1C[C@H](C)[C@@H](OC)CN(C)C(=O)c2cc(NC(=O)NC3CCCCC3)ccc2OC[C@H]1C | 3 | 6
C[C@H](CO)N1C[C@H](C)[C@H](CN(C)CC2CC2)Oc2ccc(NS(=O)(=O)c3ccc(F)cc3)cc2CC1=O | 2 | -3
COc1cccc(S(=O)(=O)N[C@H]2CC[C@@H](CC(=O)NCc3ccc(Cl)cc3)O[C@@H]2CO)c1 | -2 | 0
O=C(C[C@H]1CC[C@@H]2[C@H](COC[C@@H](O)CN2Cc2cccc(F)c2)O1)NCc1cccc(F)c1 | -12 | -15
C[C@H]1CN([C@@H](C)CO)C(=O)c2cccc(NC(=O)c3ccncc3)c2O[C@@H]1CN(C)S(C)(=O)=O | 17 | 8
NCC[C@H]1CC[C@@H](NC(=O)C2CC2)[C@@H](CO)O1 | 13 | 16
COc1ccc2c3c([nH]c2c1)[C@H](CO)N(Cc1nccs1)CC31CN(Cc2cccnc2)C1 | 21 | 21
CC(C)CC#Cc1ccc2c(c1)O[C@@H](CN(C)S(C)(=O)=O)[C@H](C)CN([C@@H](C)CO)S2(=O)=O | -15 | -24
C[C@@H]1CN([C@@H](C)CO)C(=O)Cc2cc(NS(=O)(=O)c3cn(C)cn3)ccc2O[C@@H]1CN(C)C(=O)Nc1cccc2ccccc12 | 12 | 9
COc1cccc(CN2[C@H](CO)[C@H](c3ccccc3)C23CN(C(=O)C2CC2)C3)c1 | 4 | 3

One compound at a time (already shown).
Listed for `O=C(C[C@H]1CC[C@@H]2[C@H](COC[C@@H](O)CN2Cc2cccc(F)c2)O1)NCc1cccc(F)c1` = Vaccinia inh = -12; Vaccinia inh Venus = -15
Listed for `C[C@H](CO)N1C[C@H](C)[C@H](CN(C)CC2CC2)Oc2ccc(NS(=O)(=O)c3ccc(F)cc3)cc2CC1=O` = Vaccinia inh = 2; Vaccinia inh Venus = -3
Listed for `C[C@H]1CN([C@@H](C)CO)C(=O)c2cccc(NC(=O)c3ccncc3)c2O[C@@H]1CN(C)S(C)(=O)=O` = Vaccinia inh = 17; Vaccinia inh Venus = 8
